# LANA-H2A inh – blocks KSHV LANA binding to histone H2A/H2B | cell-free LANA-H2A/H2B peptide, fluorescence polarization | AID 2629 | Q9QR71 | hit rate 0.6% among 320,000 | inhibition, % (concentration not given with the values); in the data active = inhibition mostly above about 10%, no sharp cut-off; inactive = mostly below about 6.7%;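 also: stock transfer was 7.5 nL into about 10 µL; 0% = median of vehicle wells and 100% = median of positive control wells; one replicate is shown; the record names a cut of 25% in any replicate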
# RanGTP-Imp inh – disruptors of Ran-importin-beta complex formation – biochemical, FRET, CFP-Ran, YFP-importin-beta, homogeneous, primary screen | cell-free CFP-Ran/YFP-importin-beta FRET ratio | inhibition, % (concentration not given with the values) | hit rate 1.1% among 300,000;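 active = most replicates above 15%; inconclusive = exactly half above 15%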;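 also: 0% = DMSO wells and 100% = Ran loaded with GDP instead of GTP; wells of about 40 µL received 100 nL stock; the first replicate is given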
# Calb FLC – C. albicans growth modulation with fluconazole; C. albicans CaCi-2 (fluconazole-resistant clinical isolate) + fluconazole, Alamar Blue growth, 48 h; growth inhibition, % (no concentration beside the values); hit rate 0.57% among 300,000;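 active = most replicates above 75%; inconclusive = exactly half above 75%; inactive = most below 75%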;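 also: all wells also contain fluconazole at 8 µg/ml as a sub-toxic cotreatment; 0% = median of DMSO wells and 100% = median of geldanamycin control wells; wells of about 8 µL received 7.5 nL stock; the first replicate is given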
# Beta2AR agonist – human beta-2 adrenergic receptor agonism by FAP | P07550 | hit rate 0.43% among 340,000 | AID 504454 | Am2.2-beta2AR cells, FAP receptor internalization, flow cytometry; reference of the scale not given here | response, % (no concentration beside the values);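 active = response above a set limit, near 3 SD of response in nonfluorescent compounds, cut at about 42% in these data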;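 also: stock transfer was 100 nL into about 11 µL; a reference agonist was the positive control; negative values mostly stem from fluorescent compounds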
# Target sequence (P07550 whole entry, looked up): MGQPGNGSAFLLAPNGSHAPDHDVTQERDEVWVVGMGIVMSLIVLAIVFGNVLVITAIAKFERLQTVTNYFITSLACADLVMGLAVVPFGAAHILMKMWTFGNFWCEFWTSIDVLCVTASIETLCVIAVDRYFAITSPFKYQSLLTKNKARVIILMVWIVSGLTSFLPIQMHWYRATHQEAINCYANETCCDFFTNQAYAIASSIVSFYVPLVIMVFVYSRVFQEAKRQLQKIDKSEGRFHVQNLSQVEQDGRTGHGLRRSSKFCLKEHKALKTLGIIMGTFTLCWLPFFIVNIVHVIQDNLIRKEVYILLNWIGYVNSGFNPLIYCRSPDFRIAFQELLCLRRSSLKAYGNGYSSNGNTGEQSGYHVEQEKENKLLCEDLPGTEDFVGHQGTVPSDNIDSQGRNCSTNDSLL
# ALR H2O2 inh – inhibitors of human sulfhydryl oxidase ALR | P55789 | purified ALR, DTT oxidation, H2O2 HRP-luminol luminescence | inhibition, % (test concentration not listed) | hit rate 3.8% among 290,000 | AID 485317;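 active = mean and each replicate at 75% or more; inconclusive = only one of the two met; inactive = neither met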;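 also: stock transfer was 7.5 nL into about 7.5 µL; 0% = neutral wells and 100% = wells with inactivated enzyme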
# Target sequence (P55789 whole entry, looked up): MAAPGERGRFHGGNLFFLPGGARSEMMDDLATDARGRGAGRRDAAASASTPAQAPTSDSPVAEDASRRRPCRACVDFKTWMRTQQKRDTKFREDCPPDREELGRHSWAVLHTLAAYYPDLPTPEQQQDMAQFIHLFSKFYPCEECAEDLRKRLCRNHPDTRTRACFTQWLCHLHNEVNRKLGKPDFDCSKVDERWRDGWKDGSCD
# HNF4A DNA FP – change in binding of human HNF4 alpha to DNA; HNF4a-FITC DNA binding, fluorescence polarization, 1 h; activity change, % at 10 µM; P41235; hit rate 0.3% among 360,000; in the data active = activity change above about 30%, passing the limit was not always enough;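 also: controls were the assay level and a saturating level of protein; the project sought stronger binding though the title names inhibitors; some compounds called inactive have numbers as strong as hits; positive values seem to mean higher polarization but the record does not say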
# Target sequence (P41235 whole entry, looked up): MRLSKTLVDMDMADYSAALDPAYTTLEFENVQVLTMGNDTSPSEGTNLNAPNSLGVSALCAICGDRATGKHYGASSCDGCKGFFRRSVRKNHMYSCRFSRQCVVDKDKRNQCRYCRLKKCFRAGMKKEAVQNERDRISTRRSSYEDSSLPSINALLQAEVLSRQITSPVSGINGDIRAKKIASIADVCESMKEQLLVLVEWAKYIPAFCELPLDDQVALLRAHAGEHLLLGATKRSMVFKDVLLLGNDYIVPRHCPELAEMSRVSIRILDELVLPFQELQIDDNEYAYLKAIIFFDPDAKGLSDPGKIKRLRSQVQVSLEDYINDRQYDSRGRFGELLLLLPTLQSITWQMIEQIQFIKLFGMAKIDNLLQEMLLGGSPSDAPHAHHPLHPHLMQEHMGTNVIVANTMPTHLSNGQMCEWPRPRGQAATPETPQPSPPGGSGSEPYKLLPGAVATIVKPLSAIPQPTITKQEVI
# Vif A3G – inhibitors of Vif binding to APOBEC3G peptide, primary screen, biochemical, TR-FRET, GST-Vif 1-94, biotin-A3G peptide, dose response retest (AID 1117319); TR-FRET GST-Vif / biotin-A3G peptide binding; higher % means a stronger effect; test concentration not given here; strong numbers were not always called active; hit rate 0.57% among 260,000; one-dose inhibition, %; IC50 in µM for titrated hits;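 active = above the screen mean plus three standard deviations and confirmed in dose response; inconclusive = results disagree or hit not tested in dose response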;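 also: Vif residues 1-94 fused to GST binding biotinylated APOBEC3G peptide 110-148; 0% = full assay without inhibitor and 100% = GST in place of GST-Vif; retest series ran down from 100 µM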
# * = called active by the depositor; ? = inconclusive; · = not tested or not shown; & = joins results of further samples.
SMILES	LANA-H2A inh	RanGTP-Imp inh	Calb FLC	Beta2AR agonist	ALR H2O2 inh	HNF4A DNA FP	Vif A3G
Cc1c(O)c2cccnc2[nH]c1=O	-0.6	1.4	-7.2	-4.0	-4.0	0.5	-0.1%
CCOC(=O)CCC(NC(=O)c1cncc(O)c1)C(=O)OCC (stereo not given)	3.5	3.3	4.4	0.9	-2.6	-0.1	4.2%
CCCCOc1ccc(C(O)C(CN2CCCCC2)c2ccccc2)cc1 (stereo not given)	-1.6	2.3	-1.9	-4.4	6.5	2.8	-9.2%
CCCOc1ccccc1N1C(=O)CC(N(O)c2ccccc2)C1=O (stereo not given)	-2.4	-1.7	5.6	7.4	97.1*	-0.4	-6.7%
CCN(CC)CCn1c(=S)[nH]c2ccc(Br)cc2c1=O	-0.1	-2.6	-4.6	-8.4	96.7*	0.1	·
CN(C)C(=S)SCCn1c(N)nc(N(C)C)nc1=O	-2.8	1.5	2.8	-1.8	-5.4	5.4	12.7%
CC(=O)Nc1ccc(NC(=O)Cn2c(=O)n(-c3ccccc3)c(=O)c3oc4ccccc4c32)cc1	-3.8	-0.8	-11.8	-3.4	1.4	0.5	-5.9%
CCN(CC)Cc1csc2ccc(Br)cc12	2.1	-2.4	0.9	5.6	-0.4	-1.1	-4.2%
Cc1ccc(-c2nc(NCc3ccco3)n(S(C)(=O)=O)n2)cc1	6.1	?	-1.1	-0.8	-1.3	2.6	9.3%
CC1=CC(C)(C)Nc2ccc(OC(=O)CN3C(=O)CCC3=O)cc21	3.6	-1.9	9.6	17.7	98.9*	-0.5	?
COc1ccc(OC)c(NC(=O)C2CCCN(S(=O)(=O)c3c(C)noc3C)C2)c1 (stereo not given)	3.4	-3.3	-4.6	1.5	-15.4	2.8	5.7%
CN(C)CCCOc1ccc2c(c1)Sc1ccccc1CC2=O	3.3	3.1	0.6	-11.0	-14.9	6.7	23.2%

SMILES	LANA-H2A inh	RanGTP-Imp inh	Calb FLC	Beta2AR agonist	ALR H2O2 inh	HNF4A DNA FP	Vif A3G
O=C(NCC(c1ccco1)N1CCOCC1)C1CCCCC1 (stereo not given)	1.1	0.9	3.1	1.7	1.7	3.2	-0.2%
COc1cccc(C(=O)Nc2ccc(-n3nncc3C(C)(C)C)cc2)c1	3.0	0.6	-2.0	3.1	·	2.7	-3.8%
CCOC(=O)N1CCN(C(=O)C(=O)N/N=C/c2ccc(OC)cc2OC)CC1	-1.8	-1.0	9.3	-5.1	-3.7	1.8	·
O=C(NCc1cccnc1)c1cccc2c1C(=O)N(Cc1cccnc1)C2	-2.3	-0.9	-3.3	-2.0	-7.8	-1.9	1.1%
Cc1[nH]c(=O)[nH]c(=O)c1S(=O)(=O)Nc1ccc(Br)cc1F	0.0	-2.6	0.9	15.3	-0.7	1.2	-3.7%
Cc1ccc(S(=O)(=O)/N=c2\ccc(Cl)cn2C(F)F)cc1	17.3*	-1.6	-0.5	-2.5	0.6	-1.7	-2.9%
Cc1ccc(NC(=O)C(C)OC(=O)/C=C/c2ccccc2)cc1 (stereo not given)	-2.6	-5.2	-1.8	-4.0	-0.9	0.9	-2.1%
O=C(CCc1nnc(Cc2cccc(C(F)(F)F)c2)o1)NCCc1ccccc1F	1.9	1.9	-9.3	-9.0	·	0.9	·
CCC(C)[C@H](NC(=O)C1CCC(CNC(=O)[C@@H]2CCCN2C(=O)OC(C)(C)C)CC1)C(=O)O (stereo not given in full)	1.4	5.2	1.7	7.5	-1.4	0.5	-1.4%
CCOc1ccc(S(=O)(=O)NCc2ccccn2)cc1NC(=O)c1ccccc1F	8.3	0.3	2.4	18.9	-0.8	-0.1	·
O=C(CSc1c2c(nc3cc(Cl)ccc13)CCCC2)NCCCN1CCOCC1	1.2	-3.1	0.6	-6.9	97.1*	-1.0	·
O=C1c2ccc([N+](=O)[O-])cc2C(=O)N1CNc1ccccn1	1.5	0.9	8.7	4.1	-16.9	3.6	4.0%

SMILES	LANA-H2A inh	RanGTP-Imp inh	Calb FLC	Beta2AR agonist	ALR H2O2 inh	HNF4A DNA FP	Vif A3G
O=C(Nc1nccs1)C1CCN(S(=O)(=O)c2ccccc2)CC1	0.0	?	-12.2	4.6	·	0.9	·
O=S(=O)(NCCOCCNS(=O)(=O)c1ccccc1)c1ccccc1	-4.8	4.0	-0.4	1.4	-2.3	-0.8	-1.9%
FC(F)(F)c1ccnc(Sc2n[nH]c(C(F)(F)F)n2)c1	-0.2	3.0	-6.0	-1.3	-3.8	10.3	-6.1%
Cc1ccc(C(=O)OC2CCN(c3ccc([N+](=O)[O-])cc3)CC2)cc1	-0.9	1.8	39.8	-2.9	·	1.8	7.2%
Cc1ccc(-c2csc3nc(SCC(=O)N(C)C)n(Cc4ccccc4)c(=O)c23)cc1	-0.9	7.0	-2.0	-6.6	-5.7	6.4	10.2%
Cc1ccc(C(=O)Nc2cccc(C(F)(F)F)c2)cc1Nc1ncnc2nc[nH]c12	-4.2	0.3	3.6	·	-1.8	-1.2	5.8%
Cn1c(O)c(N=NC(=O)CNC(=O)c2ccccc2)c2cc(Br)ccc21	3.2	-3.4	-35.2	0.1	1.6	-0.1	·
Fc1ccccc1/C=N/Nc1nc(N2CCCCC2)nc(N2CCCCC2)n1	-10.8	-2.2	-49.4	-2.6	-7.3	-3.5	·
COCCNC(=O)C1CC(c2cccc(OC)c2)=NO1 (stereo not given)	-0.4	1.8	-8.0	-3.8	-2.1	-1.6	2.4%
COc1ccc(Nc2nc(N)nc(CSc3nncn3C)n2)cc1	-4.1	4.3	9.3	4.5	-5.7	0.1	-0.8%
CNC(=O)c1cc(C(=O)c2ccccc2Br)c[nH]1	0.6	3.8	8.8	10.1	4.5	0.2	-3.4%
Cc1ccccc1Oc1ncnc2oc(-c3ccccc3)cc12	0.9	4.6	2.8	18.7	-2.7	1.6	0.9%

SMILES	LANA-H2A inh	RanGTP-Imp inh	Calb FLC	Beta2AR agonist	ALR H2O2 inh	HNF4A DNA FP	Vif A3G
CCCCn1c(C23CC4CC(CC(C4)C2)C3)n[nH]c1=S	-0.5	3.8	1.7	-10.5	11.2	0.9	1.4%
COc1ccc2[nH]c(C)c(CCN3C(=O)OC(C)(C)C3(C)O)c2c1 (stereo not given)	1.2	0.0	-4.3	7.8	56.8	3.3	5.4%
COc1ccc(NC(=O)CNC(=O)C2CCCCC2)cc1OC	5.3	·	·	0.3	-7.9	3.7	·
Nc1sccc1C(=O)c1ccc(Cl)cc1	·	-12.1	10.4	-5.1	·	13.5	16.2%
Cc1c(C(=O)N/N=C/c2ccccn2)nnn1-c1nonc1N	-3.4	0.7	0.7	6.2	-2.4	-1.0	6.0%
CCc1cc(C)cc(OCCNC(=O)c2ncn[nH]2)c1	2.5	2.5	-19.5	12.6	·	3.9	13.2%
CCCOC1CCCN(C(=O)c2cc(COc3ccc(F)c(F)c3)on2)C1 (stereo not given)	0.6	?	-3.2	-1.2	1.9	0.5	·
COC(=O)c1c(C)[nH]c(C(=O)OC(C)C(=O)N(C)C2CCCCC2)c1C (stereo not given)	3.9	-2.3	0.6	-2.5	-14.5	1.4	-2.1%
Cc1cc(N2C(=O)C3C4C=CC(C4)C3C2=O)no1 (stereo not given)	2.6	0.0	-6.0	-9.4	·	1.4	9.1%
Cc1cc(C(=O)NNC(=O)c2ccccc2O)c(C)o1	1.4	·	·	-6.9	1.5	-2.6	-2.9%
CCOC(=O)C1CCN(C(=O)N(C)C)CC1	2.8	-0.2	-26.9	-6.7	-0.9	-0.1	1.8%
O=C(N/N=C/c1coc2ccc(Cl)cc2c1=O)c1ccc(O)cc1	-1.2	2.3	27.4	5.2	97.9*	-2.1	·

SMILES	LANA-H2A inh	RanGTP-Imp inh	Calb FLC	Beta2AR agonist	ALR H2O2 inh	HNF4A DNA FP	Vif A3G
O=C(CCCl)N1CCCC2(CCCCC2)C1	-0.6	-3.6	3.6	-5.1	0.4	1.5	-6.9%
Cc1ccc(C)c(COC(=O)c2cc(S(=O)(=O)N3CCCCC3)ccc2N2CCOCC2)c1	-0.2	1.6	3.2	8.5	-5.0	0.5	-3.5%
CC1Cc2ccccc2N1S(=O)(=O)c1cccc(C(=O)NCc2ccncc2)c1 (stereo not given)	-12.0	·	·	1.1	-1.5	2.0	8.2%
COc1ccc(NC(=O)c2c(-c3ccccc3)noc2C)c(OC)c1	1.9	4.7	-10.4	-8.6	-7.0	1.0	?
CCc1ccc(-c2cc(C(=O)NCCCn3ccnc3)c3ccccc3n2)s1	1.7	-1.6	4.1	·	-0.9	·	·
Cn1c(N)c(C(=O)COC(=O)c2cccc(S(=O)(=O)N3CCCCC3)c2)c(=O)n(C)c1=O	-3.2	?	18.8	12.0	-5.2	-3.5	·
CN=c1sc(C(=O)Nc2cccc(Cl)c2)cc(=O)n1C	3.1	2.9	25.4	-9.8	8.3	5.3	16.9%
Nc1ccc2c(c1)C(O)c1cccc(C(=O)O)c1-2 (stereo not given)	·	·	·	2.6	·	-5.8	2.9%
Cc1ccc(S(=O)(=O)NCC(=O)NC2CC2)cc1	2.0	6.4	-0.9	2.2	-0.8	-0.1	·
COc1cccc(NC(=O)Nc2ccc3c(c2)N(C)C(=O)CS3)c1	0.7	20.2*	?	22.9	-2.7	0.7	-1.6%
COc1cccc(-n2c(=O)c3sccc3n(CC(=O)NC3CCCCC3)c2=O)c1	-2.5	5.5	1.2	4.7	·	0.4	·
Oc1ccc(/C=N/Nc2ncnc3nc[nH]c23)cc1	-0.1	3.8	0.2	-2.3	·	1.9	·

SMILES	LANA-H2A inh	RanGTP-Imp inh	Calb FLC	Beta2AR agonist	ALR H2O2 inh	HNF4A DNA FP	Vif A3G
Cc1ccc2nc(NC(=O)Cc3cccs3)sc2c1	4.5	-2.4	-22.1	1.1	-2.6	3.5	-2.2%
CCOCCCNC(=O)C1CCCN1C(=O)NC1CCCCC1 (stereo not given)	-3.4	3.8	32.8	-2.9	·	2.4	22.8%
O=C(CCN1C(=O)C2C3CCC(C3)C2C1=O)Nc1ccccc1Cl (stereo not given)	-0.3	3.2	-2.3	3.0	0.9	-0.6	·
NC(=O)C1CCCN(C(=O)c2cccc(S(=O)(=O)N3CCCCCC3)c2)C1 (stereo not given)	-2.7	·	·	-5.1	-2.3	1.2	·
OCCNc1nc(Nc2cc(Cl)ccc2OC2CCCC2)nc(N2CCCC2)n1	1.8	-4.9	26.9	11.4	1.4	6.9	·
CC(C)(C)C(=O)Nc1nnc(COc2ccc(Cl)cc2)s1	-10.6	-0.3	0.8	4.2	-24.1	4.8	-9.6%
Cc1ccnc(NC(=O)c2cccc(S(=O)(=O)N3CCOCC3)c2)c1	2.6	-0.2	-1.1	-4.5	-4.1	-0.8	0.2%
CCC(=O)Nc1ccccc1C(=O)OCC(=O)Nc1ccc(S(N)(=O)=O)cc1	3.7	5.5	-9.4	2.2	0.5	-2.5	-0.6%
CC(C)c1ccc(O)c(NC(=O)c2cncc(Br)c2)c1	-1.6	-2.5	-16.1	15.5	·	7.7	7.7%
COc1ccc(NS(=O)(=O)c2cc(NC(=O)COc3ccccc3)ccc2N2CCOCC2)cc1	0.5	·	·	-0.5	1.1	2.0	0.9%
Cc1cccc(C)c1NC(=O)Cn1c(=O)c2cccn2c2ccccc21	4.4	0.9	-49.4	3.2	-16.1	-1.9	·
COCC(C)NC(C(=O)Nc1ccc(Cl)c([N+](=O)[O-])c1)c1ccccc1 (stereo not given)	6.0	0.6	-4.1	2.0	-11.5	-1.0	·
CCOC(=O)C1Nc2ccc(C(=O)O)cc2C2C=CCC12 (stereo not given)	-5.7	-5.2	3.2	-6.8	-21.5	-61.8	·
COc1ccc(C(=O)NCCC(C)C)cc1S(=O)(=O)N1CCOCC1	4.9	?	?	3.2	-1.2	-0.5	-2.6%&0.9%
